Ba CapD inh: Bacillus anthracis CapD inhibitors, primary screen, biochemical, fluorescence intensity. CapD gamma-glutamyltranspeptidase (Bacillus anthracis Ames Ancestor). purified CapD enzyme, fluorescence intensity read-out; stronger effect = lower value; some hits fall short of the stated cut. z-score (concentration not given with the values). 0.23% of 140,000 active;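 active means z-score under -4 in either of two replicates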;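 further: stock transfer was 100 nL into about 40 µL; score is relative to mean and spread of the plate; one replicate is shown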
AID504770: growth inhibition of E. coli YBA685, primary screen, V. cholerae RctB inhibitors | E. coli YBA685 rctB-dependent plasmid, OD600 growth, 3 h; stronger effect = lower value | z-score (no concentration beside the values) | 0.27% of 130,000 active;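 active means z-score under -2 on both plates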;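 further: wells of about 30 µL received 100 nL stock; score is relative to mean and SD of the test wells; the first replicate is given; strong numbers were not always called active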
Active calls of the source: *; . = no result given.

SMILES | Ba CapD inh | AID504770
CCNC(=O)NC1(C(=O)Nc2ccc3c(c2)OCCO3)CCCCC1 | . | -0.35
COc1ccc(N/N=C(\C#N)C(=O)Nc2ccccc2C(=O)O)cc1Cl | . | -0.7
COC(=O)c1nnn(CC(=O)Nc2ccccc2)c1N | -0.18 | -0.9
CCCCNC(=O)c1ccc2c(c1)NC(=O)C(CS(=O)(=O)Cc1ccccc1Cl)N2 (stereo unspecified) | 11 | -0.35
COC(=O)c1ccc2c(=O)[nH]c(COC(=O)c3ccc(Cl)c(N)c3)nc2c1 | . | 1.6
CCCCn1c(=O)oc2ccc(C)cc21 | -0.34 | -0.2
COC(=O)CN(c1ccc(C(C)C)cc1)S(=O)(=O)c1c(C)[nH]c(=O)[nH]c1=O | 0.41 | 0.25
COC(OC)C12c3ccccc3C(c3ccccc31)C1C(=O)N(c3cccc(Cl)c3)C(=O)C12 (stereo unspecified) | -0.33 | .
COc1ccc2c(C(=O)O)cc(=O)[nH]c2c1 | 5.9 | -0.3
COc1cccc2c1Oc1nn(-c3ccccc3)c(N)c1C2 | -0.32 | 0.8
CCN(CC)CCSc1nc(CC(C)C)nc2c1c(=O)n(C)c(=O)n2C | . | -1.3
CCOc1ccc(NC(=O)C2=C(C)NC(=O)NC2c2ccccc2)cc1 (stereo unspecified) | -0.35 | .
O=C(O)C1CC(=O)N(CCOc2ccccc2)C1 (stereo unspecified) | -1.1 | 2
COc1ccc(C2OC(=O)CC2C(=O)NCc2ccc(F)cc2)cc1OC (stereo unspecified) | 0.91 | 0.05
N#CCSc1nc(-c2ccccc2)cc(=O)[nH]1 | . | -0.6
COc1ccc(NC(=O)c2c(NC(=O)c3ccccc3F)sc3c2CCCCC3)cc1 | 3.8 | .
CC1(C(=O)O)NC(c2ccccc2O)C2C(=O)N(c3ccccc3[N+](=O)[O-])C(=O)C21 (stereo unspecified) | -0.43 | .
O=c1[nH]nc(NCc2nc3ncccc3[nH]2)c2ccccc12 | 5.5 | -0.55
CCOC(=O)c1ccccc1NC(=O)c1sc2nc(C)nc(N3CCOCC3)c2c1C | 3.4 | .
O=C(c1noc2c1CCCCC2)N1CCCc2ccccc21 | -0.41 | 0.6

Entries shown so far that have fluorine (two):
SMILES | Ba CapD inh | AID504770
COc1ccc(C2OC(=O)CC2C(=O)NCc2ccc(F)cc2)cc1OC (stereo unspecified) | 0.91 | 0.05
COc1ccc(NC(=O)c2c(NC(=O)c3ccccc3F)sc3c2CCCCC3)cc1 | 3.8 | .

New compounds follow.
SMILES | Ba CapD inh | AID504770
Cc1ccc(/C=C2\SC(=S)N(CCCCC(=O)O)C2=O)o1 | . | -0.65
O=C(c1ccccc1)N1CCN(c2nc(-c3ccccc3)c3cc(Br)ccc3n2)CC1 | 0.21 | -0.5
O=C(CCc1nc2ccccc2[nH]1)Nc1ccc2c(c1)OCCO2 | 0.28 | 0.1
C=CCNC(=O)CN1CCC(n2nnc3cc(C(F)(F)F)ccc32)CC1 | . | -0.35
C=CCNc1nc(N)c(C(=O)c2ccc(OC)cc2)s1 | -3.2 | 0.95
O=C(NC1CCCC1)c1ccc(CSCc2cccc(Cl)c2)o1 | 0.33 | 1.6
Cc1ccc(-c2csc(N3C(=O)CN=C3SCc3ccc(Cl)cc3)n2)cc1 | 2.2 | -0.35
COc1ccc2nc3oc(C(=O)NCCc4ccc(Cl)cc4)cc3cc2c1 | -0.31 | 0.6
CCCC(=O)Nc1ccc(C(=O)Cn2nnc(-c3cccc(F)c3)n2)cc1 | . | 0.3
CCOC(=O)c1noc(C)c1-c1csc(COc2ccc(Cl)cc2)n1 | 0.38 | -0.7
FC(F)(F)c1cccc(NN=C2CCSCC2)n1 | -0.35 | -1.6
CN1CCC(NS(=O)(=O)c2ccc(I)cc2)CC1 | -0.22 | -1
CC(C)N(C)c1ncnc2sc3c(c12)CCC3 | -0.3 | 0.2
Cc1ccccc1OCC(O)Cn1c(SC(C)C)nc2c1c(=O)[nH]c(=O)n2C (stereo unspecified) | 0.025 | .
CCCCC1CC1C(=O)Nc1ncc2c(n1)CC(C)(C)CC2=O (stereo unspecified) | 0.14 | -0.25
O=C(COC(=O)/C=C/c1ccco1)Nc1ccc(Cl)cc1 | . | 0.5
CCN(c1ccc(OC)cc1)S(=O)(=O)c1ccc2c(c1)N(C(C)=O)CCO2 | -0.22 | 0.7
N#C/C(=C\c1ccc(-c2cc(C(F)(F)F)cc(C(F)(F)F)c2)o1)C(N)=S | -1.5 | .
Cn1c(=O)c(/C(N)=N/O)cn(-c2ccccc2)c1=O | -1 | -0.3
CS(=O)(=O)N1Cc2ccccc2CC1C(=O)OCC(=O)N1CCc2ccccc21 (stereo unspecified) | . | -0.05
Cn1c2ccccc2c2nnc(SCC(=O)c3ccc(Cl)cc3)nc21 | 0.17 | 0.15
CCOc1ccc(-n2c(SCC(=O)Nc3ccccc3OCC)nc3n[nH]c(C)c3c2=N)cc1 | 0.095 | .
CCOC(=O)C1CCN(C(=O)c2sc3nc(C)nc(N4CCCCC4)c3c2C)CC1 | 0 | .
CC1Cc2ccccc2N1C(=O)c1cc(S(=O)(=O)N2CCCC2)cn1C (stereo unspecified) | -0.55 | 0.4
O=C(NCc1ccco1)c1ccc2c(c1)nc(SCc1cc(=O)n3cc(Cl)ccc3n1)n1c3ccccc3nc21 | 0.69 | .
N=C(N)Sc1nc(N2CCCCC2)nc(N2CCCCC2)n1 | -0.68 | -0.7
Cc1cn2c(=O)c(C(=O)NCCCc3ccccc3)cnc2s1 | . | 0.05
O=c1c2c3c(sc2ncn1-n1cccc1)CCCC3 | -1.2 | -0.15
NC(=O)CN1c2cccc3cccc(c23)S1(=O)=O | . | 1.6
CCNc1nc(OCCO)nc(N(C)C)n1 | -0.19 | 1.1
Cc1cc(NC(=O)CC(C)C)nc2c1c(=O)oc1ccccc12 | 3.5 | 0.2
Cc1cccc(N2CCN(C(=O)CCNS(=O)(=O)c3ccc4c(c3)oc(=O)n4C)CC2C)c1 (stereo unspecified) | -0.51 | -1.1
COC(=O)C1=C(C)N=C2SC(C#N)=C(N)N2C1c1ccccc1 (stereo unspecified) | . | -1.2
O=C(O)c1c2c(nc3ccccc13)-c1ccccc1C2 | -0.23 | .
CC1=C(C(=O)OC2CCCCC2)C(c2ccco2)C2=C(CC(c3ccc(F)cc3)CC2=O)N1 (stereo unspecified) | 41 | -0.6
COCCN(C1CCN(S(=O)(=O)c2ccc(OC)cc2)CC1)S(=O)(=O)c1ccc(Cl)cc1 | -0.34 | .
COc1ccc2nc(SCc3nnc(-c4ccccc4)o3)c(C#N)cc2c1 | . | -0.15
CC(=O)CSc1nc2scc(-c3ccccc3)c2c(=O)n1-c1ccccc1 | -0.43 | .
COc1ccc(C(F)(F)F)cc1NC(=O)CC1(CC(=O)O)CCCCC1 | -0.3 | 0.1
CC(c1ccccc1)N1C(=O)c2ccccc2C1=O (stereo unspecified) | 0.32 | -0.65

Some values from the entries so far:
Value of COc1ccc(C(F)(F)F)cc1NC(=O)CC1(CC(=O)O)CCCCC1 in Ba CapD inh: -0.3
Value of CC1=C(C(=O)OC2CCCCC2)C(c2ccco2)C2=C(CC(c3ccc(F)cc3)CC2=O)N1 (stereo unspecified) in Ba CapD inh: 41
Value of COc1ccc2nc(SCc3nnc(-c4ccccc4)o3)c(C#N)cc2c1 in AID504770: -0.15

Next section.
SMILES | Ba CapD inh | AID504770
O=C(O)/C=C/c1cccc(Br)c1 | 0.62 | 0.15
CCCC(=O)C1CCN(Cc2ccccc2)CC1 | . | -1.1
CC1CCCN(C(=O)COC(=O)C2=COCCO2)C1 (stereo unspecified) | . | 2.1
Cn1c(C(=O)N2CCC(C(=O)NCc3ccccc3)CC2)cc2sccc21 | -0.29 | -0.55
COc1cc2ncnc(NCCCN3CCOCC3)c2cc1OC | 10 | 0.05
Nc1ncnc(Nc2cc(C(F)(F)F)cc(C(F)(F)F)c2)n1 | 0.21 | .
O=C(Nc1ccc2c(c1)oc1ccccc12)c1ccc2c(c1)OCCO2 | 0.71 | .
OC(CN1CCSCC1)C(F)(F)F (stereo unspecified) | -0.36 | 0.2
CC(C)Cc1nn2c(=O)cc(CSc3nc(-c4ccccc4F)nc4cc(=O)[nH]n34)nc2s1 | -0.28 | -0.1
Cn1c(=O)c2c(nc(NCCN3CCOCC3)n2C)n(C)c1=O | . | 0.5
O=C1OC(Cc2ccccc2Cl)c2cc[nH]c(=O)c21 (stereo unspecified) | 10 | -0.05
CC(NS(=O)(=O)c1cccc2nsnc12)C(=O)OCc1csc(-c2ccccc2)n1 (stereo unspecified) | . | 0.3
COc1ccccc1N1CCN(c2ncnc3c2cnn3-c2cccc(C)c2)CC1 | -0.24 | .
CCCN(CCC)S(=O)(=O)c1ccc2c(c1)oc(=O)n2CC(=O)OCC | 0.48 | 0.3
Oc1cccc(/C=N/c2c(-c3ccco3)nc3ccccn23)c1 | 11 | 1.3
CC(NC(=O)CN1CCN(C/C=C/c2ccccc2)CC1)c1ccccc1 (stereo unspecified) | 0.6 | -0.6
COc1ccc(CCNC(=O)c2ccccc2Cl)cc1OC | 0.075 | .
COc1ccc(C2NCCc3c2[nH]c2ccccc32)cc1COc1ccccc1F (stereo unspecified) | 0.37 | .
CSc1sc2c(N)nc(N)nc2c1C#N | 1.1 | 1
C(=Nc1ccc(Nc2ccccc2)cc1)c1ccc2ncccc2c1 | -1.4 | -0.25

Copied from the entries so far, 6 compounds:
SMILES | Ba CapD inh | AID504770
CCCC(=O)C1CCN(Cc2ccccc2)CC1 | . | -1.1
CC1CCCN(C(=O)COC(=O)C2=COCCO2)C1 (stereo unspecified) | . | 2.1
Cn1c(C(=O)N2CCC(C(=O)NCc3ccccc3)CC2)cc2sccc21 | -0.29 | -0.55
COc1cc2ncnc(NCCCN3CCOCC3)c2cc1OC | 10 | 0.05
Nc1ncnc(Nc2cc(C(F)(F)F)cc(C(F)(F)F)c2)n1 | 0.21 | .
O=C(Nc1ccc2c(c1)oc1ccccc12)c1ccc2c(c1)OCCO2 | 0.71 | .

Additional entries:
SMILES | Ba CapD inh | AID504770
CC(NC(=O)c1ccc(C(F)(F)F)cc1)C(c1ccccc1)N1CCOCC1 (stereo unspecified) | -0.67 | 0.05
C1CN(C23CC4CC(CC(C4)C2)C3)CCN1 | 0.85 | -0.35
O=S(=O)(c1cccc2cccnc12)N(CCO)CCO | -0.015 | 1.2
O=C(NCc1ccc2c(c1)OCO2)C1CC(=O)N(Cc2ccc(F)cc2)C1 (stereo unspecified) | 1.5 | 0.05
Cc1cc([N+](=O)[O-])c(C)c2c1NS(=O)(=O)c1ccccc1-2 | -1.4 | .
COc1ccc(NC(=O)C2CC(c3ccc(OC)cc3)=NO2)cc1 (stereo unspecified) | -0.34 | 0.8
Cc1ccc2nc(-c3ccc(NC(=O)COCC(=O)O)cc3)sc2c1 | 117 | -0.2
CCOc1cc(C=C2C(=O)NC(=S)NC2=O)cc(Cl)c1OCCOc1ccccc1 | -0.71 | .
Cn1c(=O)c2cc(C(=O)NC3CCCCCC3)sc2c2ccc(Cl)cc21 | 2.6 | 0.05
Cn1cnc2c1c(=O)n(Cc1ccc(F)cc1)c(=O)n2C | 0.04 | .
O=C(COC(=O)c1ccccc1)NC1CCCC1 | -0.02 | 0.05
CCOC(=O)CSc1nc2cc(C(=O)NCc3ccccc3)ccc2c(=O)n1CCc1ccccc1 | 0.28 | .
CC(=O)Nc1ccc(Nc2cc(C)c(C#N)c3nc4ccccc4n23)cc1 | 0.66 | 1.1
O=C(CC1CCS(=O)(=O)C1)NC1CCCCC1 (stereo unspecified) | 0.27 | 0.5
Cc1cc2cc(CNC(=O)c3ccc4c(c3)OCO4)ccc2[nH]1 | -0.12 | -0.3
CCN(CC)c1ccc(/C=C2\C(=O)NC(=S)N(c3ccccc3C)C2=O)c(OC)c1 | 0.12 | .
O=C(CN(c1cccc(Cl)c1Cl)S(=O)(=O)c1ccccc1)NCCSc1ccccn1 | -0.28 | .
CCN(CC)c1cc(Nc2ccc(Cl)cc2)c([N+](=O)[O-])c2nonc12 | -0.38 | .
O=c1[nH]nc(N2CCOCC2)c(=O)[nH]1 | 0.12 | -0.35
O=c1[nH]c(CCl)nc2scc(-c3ccccc3)c12 | -0.19 | 0.65
COc1ccc(CN2CCn3ncc(C(=O)Nc4cccc(C)c4)c3C2=O)cc1 | 1.6 | .
Cc1ccc(NC(=O)CSc2nn3c(SCC(=O)Nc4ccc(C)cc4)nnc3s2)cc1 | -0.03 | .

An excerpt of these results, with two lines to a compound:
Values run as follows: Ba CapD inh	AID504770
CCOC(=O)CSc1nc2cc(C(=O)NCc3ccccc3)ccc2c(=O)n1CCc1ccccc1
  0.28	.
CC(=O)Nc1ccc(Nc2cc(C)c(C#N)c3nc4ccccc4n23)cc1
  0.66	1.1
O=C(CC1CCS(=O)(=O)C1)NC1CCCCC1 (stereo unspecified)
  0.27	0.5
Cc1cc2cc(CNC(=O)c3ccc4c(c3)OCO4)ccc2[nH]1
  -0.12	-0.3
CCN(CC)c1ccc(/C=C2\C(=O)NC(=S)N(c3ccccc3C)C2=O)c(OC)c1
  0.12	.
